# Sa growth inh – S. aureus growth inhibition at 42 and 30 °C, primary screen, LtaS inhibitor project, RN4220, two temperatures; OD600, 20 h, 42 °C; stronger effect = lower value; relative growth, % (concentration not given with the values); 170,000 tested, 0.53% active;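 active = growth at 42 °C up to 50% and 20 or more points under that at 30 °C, or under 10% at both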;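 note: 300 nL library stock went into each well; scaled to the means of positive and negative controls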
# HCMV NEC inh – inhibitors of HCMV UL50-UL53 interaction, biochemical, HTRF | normalized percent inhibition | inhibition, % (no concentration beside the values) | 190,000 tested, 0.15% active;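 active = both replicates at 50% or more, plus weaker picks with an unusually low signal ratio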;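 note: stock transfer was 100 nL into about 20 µL; 0% = negative control wells and 100% = wells with untagged competitor protein; inactives centre near -12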
# GIV-Gai inh – inhibitors of GIV peptide binding to Galpha-i3, primary screen, biochemical, fluorescence polarization, FITC-GIV GBA peptide, rat Galphai3. Guanine nucleotide-binding protein G(i) subunit alpha-3 (Rattus norvegicus), P08753. 90 min; stronger effect = lower value; scaled: aluminum fluoride 0%, vehicle 100%. percent of control (FP), % (no concentration beside the values). 210,000 tested, 0.42% active. AID 1224905, 2016;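 active = replicate mean at 85% of control or lower, very high polarization wells dropped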;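 note: wells of about 15 µL received 100 nL stock; the first replicate is given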
# Target sequence (P08753 whole entry, looked up): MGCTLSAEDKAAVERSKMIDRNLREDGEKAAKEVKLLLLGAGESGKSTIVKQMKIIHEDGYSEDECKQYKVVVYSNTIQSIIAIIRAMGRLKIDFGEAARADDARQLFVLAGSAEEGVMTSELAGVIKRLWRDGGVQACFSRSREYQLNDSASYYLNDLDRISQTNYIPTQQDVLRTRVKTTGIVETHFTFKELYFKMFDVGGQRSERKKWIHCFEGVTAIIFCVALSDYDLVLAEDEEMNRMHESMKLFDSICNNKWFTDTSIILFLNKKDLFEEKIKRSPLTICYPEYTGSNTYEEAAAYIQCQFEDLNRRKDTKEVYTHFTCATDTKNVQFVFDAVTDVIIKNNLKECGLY
# Sa growth inh second temp – also measured in Sa growth inh; calls as there; relative growth, %; measured here: growth at 30 °C;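 optical density after 20 h as mean of two plates; 100% = untreated growth and lower means inhibition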
# The depositor's hits bear a star; / = not tested or not shown; & = joins results of further samples.
SMILES,Sa growth inh,Sa growth inh second temp,HCMV NEC inh,GIV-Gai inh
CCn1nc(C)cc1C(=O)Sc1ccc(C)cc1,95,88,-1,103
CCOC(=O)CSc1nc2sc3c(c2c(=O)n1CCc1ccccc1)CC(C)(C)OC3,/,/,-22,101
O=c1ccc(-c2ccc3c(c2)OCO3)nn1Cc1nc(-c2ccc3c(c2)OCO3)no1,/,/,1,104
COc1cc(OC)cc(C(=O)N2CC(OCc3ccc(F)cc3Cl)C2)c1,/,/,-25,95
CC(C)S(=O)(=O)c1cscc1NC(=O)c1ccc(-c2cc(C(F)(F)F)nn2C)s1,96,85,-32,102
COC(=O)c1ccccc1NC(=O)c1ccc2c(c1)CC(c1ccccc1)OC2=O (configuration not stated),/,/,-16,100
COc1ccc(C)cc1C(=O)C1CC(C(=O)O)C(C)(C)C1C (configuration not stated),110,99,-13,101
CCn1c(SCC(=O)N2CCc3ccccc3C2)nnc1C(C)NC(=O)c1ccccc1 (configuration not stated),114,89,-13,96
O=C(CCc1nc2sc3c(c2c(=O)[nH]1)CCCC3)Nc1ccccc1Cl,/,/,-15,106
COC(=O)C1=C2CC=CC2C(C(=O)OC)C1=O (configuration not stated),95,94,-3,106
COc1ccc(C2CC(=O)C3=C(C2)Nc2ccccc2NC3c2ccc(SC)cc2)cc1OC (configuration not stated),/,/,-28,98
Cc1cc(=O)oc2c3c(ccc12)OCC3=O,92,107,-5,98
C=CCN(CC=C)S(=O)(=O)c1nc2nc(C)cc(C)n2n1,102,86,6,/
Cc1ccc(NC(=O)c2ccco2)cc1NC(=O)CSc1ncnc2sc3c(c12)CCC3,112,80,-15,107
O=C(c1cccc(S(=O)(=O)N2CCCC2)c1)N1CCCc2ccccc21,71,96,1,/
CCOc1ccc(NCCC(=O)c2ccc3c(c2)OCO3)cc1,97,99,4,102
COC(=O)CC1=CC(=O)N(Cc2cc(C)ccc2C)c2cc(C)c(C)cc2N1,/,/,-36,104
CCCNC(=O)CN1Cc2ccccc2C1=O,111,95,-26,105
NC(=O)c1ccc2[nH]ccc2c1,/,/,-32&-2&-9&-7&-9&-10,101
COC(=O)c1sc(N2CCCC2)c(C#N)c1-c1cccs1,103,95,-23,101
Cc1cc(NC(=O)NCCn2c(C(F)(F)F)nc3cccnc32)ccc1Br,/,/,2,104
CC(C)(CO)NC(=O)c1ccc(C(C)(C)C)cc1,94,100,-2,/
CCOC(=O)Cn1nc(-c2ccccc2)c2cnc3ccc(OCC)cc3c21,99,107,1,104
O=C(c1ccccc1)C1CN(Cc2ccccc2)CCC1(O)c1ccccc1 (configuration not stated),68,60,-8,100
Cn1c(=O)c2c(nc(NC3CCCCC3)n2Cc2ccccc2F)n(C)c1=O,86,92,-12,99
C=Cc1ccc(CSc2nnc3n(CCC(C)C)c(=O)c4ccccc4n23)cc1,/,/,-15,102
CCCN(CCC)C(=O)Cn1c(=O)n(-c2cccc(C(F)(F)F)c2)c(=O)c2c(C)c(C)sc21,97,90,13,102
O=C(O)c1ccc2c(c1)OCCCO2,87,96,10,/
O=C(CN1CCN(c2ccccc2)CC1)NCc1ccccc1,81,102,1,108
CCc1ccc(NC(=O)C2CCN(S(=O)(=O)c3c(C)noc3/C=C/c3cccs3)CC2)cc1,101,89,-32,101
CN1C(=O)c2ccccc2C(C(=O)N2CCCCC2)C1c1cccs1 (configuration not stated),87,91,/,107
Cc1cc(N2CCCC2)n2nc(-c3ccc(Cl)cc3)c(C)c2n1,/,/,-22,105
COc1cc(C2OC(c3ccccc3)=NN2C(C)=O)ccc1O (configuration not stated),/,/,-22,91
Cc1ccc(N(C(=O)c2ccc3c(c2)OCO3)C2C=CS(=O)(=O)C2)cc1 (configuration not stated),112,102,2,101
NC(N)=[N+]1CCc2ccccc2C1,/,/,-10,113
CCn1c(CSc2nc3ccc(C)cc3[nH]2)nc2cc(S(=O)(=O)N(C)C)ccc21,75,74,13,/
O=C(NCCCc1ccccc1)c1ccc(CSc2nc3ccncc3[nH]2)cc1,90,72,5&-26,107&103
COc1ccccc1C1C2=C(CC(c3ccc(Cl)cc3)CC2=O)Nc2onc(C)c21 (configuration not stated),/,/,-13,103
CC(C)(C)OC(=O)N1CCC(c2c(C(=O)NCCN3CCC(Cc4ccccc4)CC3)cnn2-c2ccccc2)CC1,118,70,/,110
COc1c(O)cnn(C(C)(C)C)c1=O,59,98,-13,102
COC(=O)c1sccc1Oc1ccc(C(F)(F)F)cc1N1C(=O)C=CC1=O,92,87,-6,108
COc1ccc(-c2c(-c3ccc(O)cc3O)n[nH]c2C)cc1OC,79,87,/,104
O=C(c1cc2ccccc2oc1=O)N1CCN(Cc2ccc(Cl)cc2)CC1,103,97,-17,103
CCOC(=O)C1=C(C)N=c2s/c(=C\c3ccc(N4CCCCC4)o3)c(=O)n2C1c1cc(OC)ccc1OC (configuration not stated),/,/,-20,112
CCOC(=O)c1ccc(N2C(=O)c3n[nH]c(-c4ccco4)c3C2c2ccc(F)cc2)cc1 (configuration not stated),112,64,-19,111
O=C(Nc1ccc(Br)cc1F)c1cc(S(=O)(=O)NC2CCCCC2)ccc1F,134,87,/,103
CC(OC(=O)c1ccc2ccccc2n1)C(=O)c1ccccc1 (configuration not stated),107,87,-14,/
O=C1c2ccccc2C(=O)N1COc1ccc(F)cc1Br,110,92,-24,/
O=C(Cn1cc(-c2ccccc2)nc1SCc1ccccc1)c1ccccc1,112,84,-12,106
O=C(OCc1cc(Cl)ccc1OC(F)F)c1ccco1,75,90,-28,/
# Later entries
SMILES,Sa growth inh,Sa growth inh second temp,HCMV NEC inh,GIV-Gai inh
CCCCN(C)C(=O)Cc1c(C(=O)O)[nH]c2ccc(Cl)cc12,84,86,/,98
Cc1cccc(OC(=O)c2cc(-c3ccc4c(c3)OCCO4)on2)c1,1.8*,1.5*,12&-13,109&104
O=C(OCc1ccccc1)c1ccccc1,95,92,-34,/
O=C(NC(Cc1ccccc1)C(=O)O)c1ccco1 (configuration not stated),99,101,7,/
CCCSCCCNC(=O)c1ccc2c(c1)nc1n2CCCCC1,78,89,/,104
COc1ccc(NC(=O)Cn2c(=O)n(CCC(=O)NCC3CCCO3)c(=O)c3cc(OC)c(OC)cc32)cc1 (configuration not stated),93,100,7,105
CCOC(=O)N1CCN(CCC(=O)Nc2cc(C)ccc2C)CC1,112,94,-1,106
N/C(=N\c1nc2c(c(=O)[nH]1)CCC2)Nc1ccccc1C(F)(F)F,96,99,3,109
O=C(CSc1nccn2nc(-c3ccc(Cl)cc3)cc12)Nc1nccs1,/,/,-6,96
CCSc1nnc2c(n1)OC(c1ccccn1)Nc1ccccc1-2 (configuration not stated),/,/,3,102
COc1cc(S(=O)(=O)N2CCCCCCC2)ccc1-n1cnnn1,105,90,/,100
CN(C)c1ccc(C2C=C(c3ccccc3)Nc3ncnn32)cc1 (configuration not stated),88,66,/,134
CCOc1ccc(N(C)Cc2cc(=O)oc3ccc(OC)cc23)cc1,85,87,/,100
CCOc1ccc2[nH]c(=O)c(CN(CCOC)C(=O)NC3CCCCC3)cc2c1,79,78,-8,100
O=C(Nc1c(C(=O)N2CCN(c3ccccc3F)CC2)oc2ccccc12)c1cccc(F)c1,109,94,/,103
CCSC1=NC2(CCCCC2)Nc2ccccc21,102,87,-28,107
CC1Cc2ccccc2N1C(=O)COC(=O)c1ccc(-n2cnnn2)cc1 (configuration not stated),101,86,-5,/
CCOC(=O)c1csc(NC(=O)c2ccc(S(=O)(=O)N(CC)CC)cc2)n1,116,74,/,103
N=c1n(CCN2CCCCC2)c2ccccc2n1CC(=O)c1ccc(Br)s1,129,54,-16,108
Fc1c(F)c(C(F)(F)F)c(F)c(F)c1Sc1nc2ccccc2o1,124,99,0,102
CNC(=O)CC(=O)Nc1ccc(C(=O)O)cc1,95,85,-12,104
CCOC(=O)/C(C#N)=C1\SC=C(c2ccccc2)N1c1c(C)cccc1C,88,89,-21,107
CCOc1ccc(C(=O)OC(C)CN2CCCCC2)cc1 (configuration not stated),91,99,-25,103
CCOC(=O)Cc1csc(-c2ncc(C(F)(F)F)cc2OCC)n1,142,62,-6,101
Cc1ccc(NS(=O)(=O)c2ccc3c(c2)CC(=O)N3)cc1Cl,97,86,-16,107
Cn1nc(C(=O)N2CCN(c3cccc(C(F)(F)F)c3)CC2)c2c1-c1ccccc1OC2,111,85,/,109
Cc1ccc(C)c(C(C)NC(=O)Cc2c(C)noc2C)c1 (configuration not stated),85,93,-14,/
O=C(CCc1ccccc1)Nc1cccc(NC(=O)CCc2ccccc2)n1,103,72,-2,/
COc1ccc(NC(=O)C(=O)NCCc2ccccc2)cc1OC,100,90,8,103
COc1cccc(C2=NOC(C(=O)NC3CCCC3)C2)c1 (configuration not stated),96,87,-27,99

# Three compounds already listed, ordered by their value in GIV-Gai inh, rising.
mol,Sa growth inh second temp,GIV-Gai inh
COc1ccc(C2CC(=O)C3=C(C2)Nc2ccccc2NC3c2ccc(SC)cc2)cc1OC (configuration not stated),/,98
CC(C)S(=O)(=O)c1cscc1NC(=O)c1ccc(-c2cc(C(F)(F)F)nn2C)s1,85,102
N/C(=N\c1nc2c(c(=O)[nH]1)CCC2)Nc1ccccc1C(F)(F)F,99,109

# Continued.
SMILES,Sa growth inh,Sa growth inh second temp,HCMV NEC inh,GIV-Gai inh
Cc1ccc2c(cnn2C(=O)CCCC(=O)NCCc2ccccc2)c1,/,/,-2,116
O=C(CSCc1cnn(-c2ccccc2)c1-n1cccc1)N1CCN(c2ccc(F)cc2)CC1,111,54,/,97
c1cc2c3c(cccc3c1)NC1(CCCCC1)N2,99,60,-30,97
COc1ccccc1NC(=O)c1oc2ccccc2c1NC(=O)COc1cccc(C)c1,106,94,21,106
COC(=O)CCc1c(C)nn(-c2ccccc2)c1C,103,78,-14,106
COC(=O)c1ccccc1S(=O)(=O)N1CCN(c2ncccn2)CC1,91,85,-32,106
COc1ccc(C2=NN(C(=O)COC(=O)c3ccc4c(c3)C(=O)N(CCC(C)C)C4=O)C(c3ccco3)C2)cc1 (configuration not stated),97,93,-20,/
Cc1ccc(NC(=O)Cn2c(=O)n(CCCC(=O)NCc3ccc4c(c3)OCO4)c(=O)c3ccccc32)cc1,104,92,-6,105
O=c1oc2cc(S(=O)(=O)N3CCCC3)ccc2c2ccc(S(=O)(=O)N3CCCC3)cc12,103,89,-6,109
COc1ccccc1NC(=O)C(C#N)Cc1cc2cc(C)cc(C)c2[nH]c1=O (configuration not stated),81,89,-14,97
CN(C)Cc1c(O)ccc2c(=O)c(-c3ccc(Cl)cc3)coc12,81,85,-9,107
C/C(=N\OCC(=O)Nc1ccc2c(c1)OCCO2)c1cc2ccccc2o1,103,98,-1,/
CC(=O)c1cc2c(cc1NC(=O)c1c(C)nn(-c3ccc(C)cc3)c1-n1cccc1)OCO2,108,87,/,99
CCn1c(CN(C)c2ccccc2)nc2cc(S(=O)(=O)N(C)C)ccc21,87,91,-18,/
CCn1c(NC(=S)Nc2ccccc2)nc2ccccc21,114,88,-14,103
CCOC(=O)C1CCCN(C(=O)C2CCCCC2)C1 (configuration not stated),112,105,-7,107

# Filtered by structure: the entries above with an aryl thioether with sulfur outside any ring.
SMILES,Sa growth inh,Sa growth inh second temp,HCMV NEC inh,GIV-Gai inh
CCOC(=O)CSc1nc2sc3c(c2c(=O)n1CCc1ccccc1)CC(C)(C)OC3,/,/,-22,101
CCn1c(SCC(=O)N2CCc3ccccc3C2)nnc1C(C)NC(=O)c1ccccc1 (configuration not stated),114,89,-13,96
COc1ccc(C2CC(=O)C3=C(C2)Nc2ccccc2NC3c2ccc(SC)cc2)cc1OC (configuration not stated),/,/,-28,98
Cc1ccc(NC(=O)c2ccco2)cc1NC(=O)CSc1ncnc2sc3c(c12)CCC3,112,80,-15,107
C=Cc1ccc(CSc2nnc3n(CCC(C)C)c(=O)c4ccccc4n23)cc1,/,/,-15,102
CCn1c(CSc2nc3ccc(C)cc3[nH]2)nc2cc(S(=O)(=O)N(C)C)ccc21,75,74,13,/
O=C(NCCCc1ccccc1)c1ccc(CSc2nc3ccncc3[nH]2)cc1,90,72,5&-26,107&103
O=C(Cn1cc(-c2ccccc2)nc1SCc1ccccc1)c1ccccc1,112,84,-12,106
O=C(CSc1nccn2nc(-c3ccc(Cl)cc3)cc12)Nc1nccs1,/,/,-6,96
CCSc1nnc2c(n1)OC(c1ccccn1)Nc1ccccc1-2 (configuration not stated),/,/,3,102
Fc1c(F)c(C(F)(F)F)c(F)c(F)c1Sc1nc2ccccc2o1,124,99,0,102

# The order is random; overall some 0.83% were active at least once.
